Compound activity from PubChem BioAssay.
MgrA DNA FP – S. aureus MgrA activity modulators, primary screen, biochemical, S. aureus Newman, fluorescence polarization; MgrA-DNA binding; inhibition, %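 (about 10 µg/mL by stock and volumes)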; AID 602314, 2012; 0.13% of 84,000 active;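 active = above 50% in either of two replicates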;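 note: 0% = protein plus DNA without compound and 100% = DNA alone without protein; higher means less MgrA bound to DNA so lower polarization; one replicate is shown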
S aureus helic – inhibitors of S. aureus replicative helicase, primary screen, biochemical, fluorescence unwinding readout. replicative DNA helicase (DnaC/DnaB), Staphylococcus aureus. purified S. aureus helicase, fluorescence unwinding assay; about half of the hits fall short of the stated cut. inhibition, %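 (tested at about 80 µM)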. 0.05% of 120,000 active;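 active = both duplicates at 50% or more, or one of them with a favoured structure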;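 note: 0% = mean of negative control wells and 100% = mean of positive control wells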
* hit, by the source's call; / = not tested or not shown. A portion of the library; count on the stated rates, not on these rows.

SMILES	MgrA DNA FP	S aureus helic
CCOC(=O)C1CCN(CC(O)COc2ccc3ccccc3c2)CC1 (stereo not drawn)	-0.8	1
O=C(SCc1nc2ccccc2[nH]1)c1ccc(-c2ccccc2)cc1	-7.8	4
Cc1ccc(SCCNC(=O)C(C)C)cc1	2.9	-1
COc1ccc(C2CC(=O)c3cnc(NC(C)=O)nc3C2)cc1OC (stereo not drawn)	/	5
N/C(=N/S(=O)(=O)Cc1ccccc1)N1CCOCC1	/	9
Cc1ccc(N2C(=N)S/C(=C\c3ccc(-c4ccc(F)cc4)o3)C2=O)cc1C	0.8	6
O=C(CN1CCOCC1)NC12CC3CC(CC(C3)C1)C2	-0.9	18
CCn1c(=NC(=O)c2cccc(N3C(=O)CCC3=O)c2)sc2c(C)ccc(OC)c21	/	6
CCC(Sc1nc(=O)cc(N)n1-c1ccccc1)C(=O)Nc1ccc(Cl)cn1 (stereo not drawn)	/	27
COC(=O)c1cc(OC)c(OC)cc1NS(=O)(=O)c1ccc(C)cc1	-2.4	/
CCC(CC)NC(=O)c1ccc2c(c1)OCO2	-0.2	10
CN1C(=O)/C(=C\N2CCCCC2)C(=O)NC1=S	4.2	6
CC(=O)Nc1cc(Br)c2c(c1)OCCO2	/	3
NC(=O)C1CCN(C(=O)Cc2ccc(Cl)cc2)CC1	0.8	1
O=C(CSc1ccccc1C(=O)O)Nc1ccccc1OC(F)F	/	3
CN(C(=O)c1cnc(N2CCN(c3ncccn3)CC2)c2ccccc12)c1ccc(Cl)cc1	/	6
CC(C)C(NC(=O)CSc1ccc(Cl)cc1)C(=O)O (stereo not drawn)	/	-6
CC(C)(C)c1csc(-c2sccc2CS(=O)(=O)c2ccc(Cl)cc2)n1	-2.2	/
CCCN(C(=O)Cn1c(=O)oc2ccccc21)c1ccccc1OC	/	17
CN(C)c1nc(-c2ccccc2)c2cc(Cl)ccc2n1	/	-8
COc1cc2c(cc1OC)CN(CC(=O)NC(=O)NC1CCCCC1)CC2	/	9
O=C1CC(Nc2ccc3c(c2)OCO3)C(=O)N1C1CCCCC1 (stereo not drawn)	-1.5	11
Cc1nn(Cc2ccc(C(=O)NC(C)(C)C)o2)c(C)c1Br	/	5
NC(=O)CSc1ccc2ccccc2n1	0.8	-5
CCc1cc(C(=O)Cc2ccc3c(c2)OCCCO3)c(O)cc1OC	/	1
COC(=O)C1=CC(C(=O)c2ccccc2)=NN(c2ccccc2)C1C(=O)OC (stereo not drawn)	-1.1	/
c1ccc(-c2nc(C34CC5CC(CC(C5)C3)C4)cs2)cc1	1.0	19
O=C(c1ccc2c(c1)sc1nc(-c3ccccc3)cn12)N1CCCCC1	-1.9	-6
CCCCn1c(SCc2cc(=O)n3ccsc3n2)nc2cc(S(N)(=O)=O)ccc21	/	-19
CCc1ccc(NC(=O)C(C)OC(=O)C2CCC(=O)N2)cc1 (stereo not drawn)	/	-6
CCC(C(=O)N1CC2(C)CC1CC(C)(C)C2)N1C(=O)c2ccccc2C1=O (stereo not drawn)	-0.9	-4
Cc1ccc(CC(C(=O)Nc2ccc(F)cc2)C(C)C(=O)O)cc1 (stereo not drawn)	/	9
CCN(CCS(=O)(=O)c1ccc(Cl)cc1)C(=O)Nc1ccccc1	-1.2	/
c1csc(-c2nnco2)c1	0.8	/
Cc1nc(C(F)(F)F)ccc1C(=O)Oc1ccccc1N1CCOCC1	-0.6	/
O=C(c1cc(Br)cc2c1OCC2)N1CCCCC1	1.0	/
CC(C)c1ccc(N(CC(N)=O)S(C)(=O)=O)cc1	1.6	-5
COc1ccc(/C=N/n2cnc3scc(-c4cccs4)c3c2=O)cc1OC	/	4
O=C(Nc1ccc(S(=O)(=O)N2CCCC2)cc1)C1COc2ccccc2O1 (stereo not drawn)	/	15
C=CCN(CC=C)C(=O)CSc1ccc(OCC)cc1	/	13
CC1CCCN(C(=O)c2cccc(S(=O)(=O)N3CCCC3)c2)C1 (stereo not drawn)	-2.2	6
CC(NS(=O)(=O)c1ccc(Br)cc1)C(=O)NCc1ccco1 (stereo not drawn)	8.1	-15
CCn1c(C(=O)N2CCC(C(=O)NCc3ccccc3)CC2)cc2sccc21	-0.7	5
Cc1ccsc1CCNC(=O)c1cc(S(=O)(=O)N2CCCCC2)c[nH]1	-0.5	7
Cc1ccc2c(cnn2C(=O)CCC(=O)N2CCCCC2)c1	/	23
Cc1cc(C)cc(NC(=O)Oc2ccccc2N2CCCCC2)c1	/	2
NC(=O)c1cccc2c1-c1ccccc1/C2=N/O	/	15
COC(=O)C(C(=O)OC)c1ccc(Cl)cc1[N+](=O)[O-]	-1.8	/
COc1cc(NC(=O)Nc2cccc3ccccc23)ncn1	19	4
N#CC(C#N)=Cc1cn(CC(=O)N2CCOCC2)c2ccccc12	1.3	-2
COC(=O)c1ccc(COc2ccc3c(c2)CCC3)o1	/	3
COc1ccc(CN=Cc2cc(Cl)cc(Cl)c2O)cc1	6.8	/
COc1cc2c(cc1OC)CN(Cn1nc(C(F)(F)F)n(C)c1=S)CC2	/	8
O=C1CC(c2ccc(Cl)cc2)C2=C(CC(c3cccs3)CC2=O)N1 (stereo not drawn)	1.1	9
COc1cc2c(cc1OBr)C(Cc1ccc(OC(C)=O)cc1)N(C)C2 (stereo not drawn)	1.4	-22
CC1CCCCN1C(=O)CSc1nnc2sc3ccccc3n12 (stereo not drawn)	/	9
COc1ccc(CC(=O)N=c2sc3ccccc3n2C)cc1S(=O)(=O)N1CCOCC1	/	-4
CCOC(=S)Nc1ccc(I)cc1	0.6	/
O=c1oc2cc(S(=O)(=O)NCCCO)ccc2c2ccc(S(=O)(=O)NCCCO)cc12	/	23
Cc1ccc2nc(-c3cc4ccccc4oc3=O)[nH]c2c1	-0.4	8
Remaining list, next part.
SMILES	MgrA DNA FP	S aureus helic
COc1cc2cc3c(=O)oc(-c4ccccc4F)nc3nc2cc1OC	-2.0	14
O=C(/C=C/c1ccc(OC(F)(F)F)cc1)NCc1ccco1	1.0	/
O=C(O)CCc1nc2cccnc2n1C1CC1	/	-12
CCOc1ccccc1NC(=O)CC1SC(=N)N(c2ccccc2)C1=O (stereo not drawn)	1.1	-7
Cc1oc2c(c1C(=O)NC(C)c1ccccc1)C(=O)c1ccccc1C2=O (stereo not drawn)	/	-20
Cc1ccc(S(=O)(=O)N(CC(=O)O)CC(=O)O)cc1	-3.4	9
Cn1cccc1/C=N/n1cnnc1	/	8
CC(C)CNC(=O)COn1nnc2ccc(S(=O)(=O)N(C)C)cc21	/	-13
Brc1cc2c(cc1CSc1nnc3ccccn13)OCO2	/	-16
Cc1cnc(C(=O)OCC(=O)c2ccc3[nH]c(=O)[nH]c3c2)cn1	/	-5
CN(C)/C=C1\C(=O)c2ccc(Cl)cc2N(Cc2c(F)cccc2Cl)S1(=O)=O	6.8	/
O=C(Nc1ccc(Cl)cn1)c1ccc(COCC(F)(F)C(F)F)o1	3.1	-8
CO/N=C(/C(=O)N[C@@H]1C(=O)N2C(C(=O)O)=C(COC(N)=O)CS[C@H]12)c1ccco1	1.6	/
COc1ccc2nc(-c3ccccc3)nc(NCCN3CCCC3)c2c1	-0.2	/
O=C(c1ccc(F)cc1)c1c[nH]c2ccccc2c1=O	0.6	10
CCN(Cc1ccccc1)C(=O)Cn1c(=O)n(CC(=O)NCc2ccco2)c(=O)c2sccc21	-8.8	6
CC(=O)N1N=C(C)CC1c1ccc(OCc2ccccc2)cc1 (stereo not drawn)	1.3	6
CCCC(=O)NCc1ccc(OC)cc1	0.3	11
O=c1sc2ccccc2n1COc1ccccc1	1.1	-12
Cc1c(S(=O)(=O)c2ccc(Cl)cc2)csc1C(=O)NC1CCN(Cc2ccccc2)CC1	1.1	/
CC1(NC(=O)CSC(C)(C)C)CCS(=O)(=O)C1 (stereo not drawn)	/	-7
CCNC(=O)c1ccc2c(c1)S(=O)(=O)c1ccccc1C2=O	/	-1
NC(=O)COC(=O)c1ccc(Cl)cc1N	-1.5	-15
CCOc1ccc(/C=N/NC(=S)NC)cc1	3.4	/
CCCCN1CC(C(=O)OCC)=C(O)C1=O	-3.0	/
Cc1cc(C)c(C#N)c(Oc2ccccc2Br)n1	3.7	1
Cc1[nH]c2ccccc2c1C(=O)Cn1c(=O)oc2ccccc21	/	11
CSc1nnc(SCC(N)=S)s1	/	16
N#CC(C(=O)NCc1ccccc1)c1nc2ccccc2nc1Cl (stereo not drawn)	0.2	7
Cc1cc(NC(=O)CN2CC(C)CC(C)C2)nc2c1c(=O)oc1ccccc12 (stereo not drawn)	/	-20
CCOC(=O)c1cnc(=O)[nH]c1C(F)(F)F	-3.8	/
CNC(=O)CC1Sc2ccccc2NC1=O (stereo not drawn)	/	11
COc1ccc(NC(=O)N2CCC(CN3CCCCC3)CC2)cc1	/	23
COc1ccc(OC)c(CCC(=O)O)c1	-2.6	/
Nc1cc(N)c2c(c1)Oc1ccccc1CC2	10	-8
CCOC(=O)C1N=C2C(=[N+]([O-])C1N)COC(C)(C)/C2=N\O (stereo not drawn)	2.9	-3
CSc1sc(C(=O)O)c(N)c1S(=O)(=O)C(C)C	3.2	/
CC1CCN(CC(=O)Nc2ccc(Cl)cc2Cl)CC1	0.1	9
Cc1cc(C)c(-n2nnnc2SCC(=O)NCCc2ccccc2)c(C)c1	/	5
Cc1cccc(NS(=O)(=O)c2ccc3c(c2)CC(C)N3C(=O)C2CC2)c1 (stereo not drawn)	/	-11
CC(=O)Nc1ccc2nc(N)sc2c1	/	-16
CCOC(=O)c1oc(C(=O)OCC)c(O)c1O	-2.5	/
Cc1ccc(-c2nc3ccc(Cl)cc3n2OCC(N)=O)cc1	-0.3	/
N#CCSc1nnc2c(n1)[nH]c1ccccc12	23	/
CCN(c1cccc(C)c1)S(=O)(=O)c1c[nH]c(C(=O)OC)c1	1.6	-12
CCN(C(=O)c1ccc(S(=O)(=O)N(C)C)cc1)c1nc2c(C)cccc2s1	/	-10
O=C(OCCN1C(=O)c2ccccc2C1=O)C1CCN(S(=O)(=O)c2cccs2)CC1	/	-4
CN(Cc1ccccc1)C1=CC2=CC(=C(C#N)C#N)CCC2CC1 (stereo not drawn)	/	-114
O=c1[nH]c(=O)n(-c2ccc(Cl)cc2)c2c1CN(CCCc1ccccc1)CN2	/	30
CCCNC(=O)CCc1nc(-c2ccccc2C)no1	/	-3
O=C(CCc1nc(-c2ccccc2)no1)NC1CCCCC1	-3.0	5
FC(F)(F)c1ccc(Cl)c(NC(=S)Sc2ccc(Cl)cc2)c1	-0.5	/
CC1CCCCC1NC(=O)/C=C/c1ccc2c(c1)OCO2 (stereo not drawn)	1.0	16
CCOc1ccc(CCNC(=O)Nc2ccc3snnc3c2)cc1	5.1	8
Cc1ccc(S(=O)(=O)NN2C(=O)S/C(=C/c3ccccc3)C2=S)cc1	8.9	6
Cc1cc(Sc2nnc(C(F)(F)F)n2C)c([N+](=O)[O-])cc1[N+](=O)[O-]	0.9	/
N#CCCN1C(=O)C2CC=CCC2C1=O (stereo not drawn)	4.0	/
OCCCNCc1cc(Cl)c2c(c1)OCCCO2	/	-52
O=c1ccc2cc(S(=O)(=O)n3ccnc3)ccc2o1	-4.8	-4
NC(=S)N/N=C/c1cc(F)cc(F)c1	3.4	/
Later entries:
SMILES	MgrA DNA FP	S aureus helic
COc1cc(OC)cc(C(c2[nH]c(C)nc2O)C(C#N)C#N)c1 (stereo not drawn)	13	-47
Cc1onc(-c2c(F)cccc2Cl)c1C(=O)NC1C2CC3CC(C2)CC1C3 (stereo not drawn)	-1.5	9
CCC(C)N(C(=O)Nc1cc(C)ccc1OC)C(C)CC (stereo not drawn)	-5.1	0
CCN(CC)C(=O)CN1C(=O)COCC1=O	3.5	-6
Cc1ccc(C)c(C2C(C#N)=C(N)OC3=C2C(=O)CCC3)c1 (stereo not drawn)	-0.6	6
Cc1onc(-c2ccccc2)c1CNC(=O)c1ccccc1C(=O)O	/	-17
COC(=O)C1=C(Nc2ccc(OC(=O)c3cccc(C(F)(F)F)c3)cc2)CSC1	-0.3	/
COc1ccc(C=Nc2ccc(C(N)=O)cc2)cc1	1.6	-15
c1coc(-c2nnc(-c3cc4c(s3)CCCC4)o2)c1	/	-5
O=C(O)CCCOc1cccc2cccnc12	6.9	0
CCOc1cc2c(cc1OCC)C1CC(=O)N(c3cccc(C)c3)C(=O)N1CC2 (stereo not drawn)	/	14
CCOC(=O)Nc1ccc2c(c1)N(C(=O)CCN(C)C)c1ccccc1S2	2.2	7

Molecules shown so far with an aryl thioether with sulfur outside any ring, in the order listed:
SMILES	MgrA DNA FP	S aureus helic
Cc1ccc(SCCNC(=O)C(C)C)cc1	2.9	-1
CCC(Sc1nc(=O)cc(N)n1-c1ccccc1)C(=O)Nc1ccc(Cl)cn1 (stereo not drawn)	/	27
O=C(CSc1ccccc1C(=O)O)Nc1ccccc1OC(F)F	/	3
CC(C)C(NC(=O)CSc1ccc(Cl)cc1)C(=O)O (stereo not drawn)	/	-6
NC(=O)CSc1ccc2ccccc2n1	0.8	-5
CCCCn1c(SCc2cc(=O)n3ccsc3n2)nc2cc(S(N)(=O)=O)ccc21	/	-19
C=CCN(CC=C)C(=O)CSc1ccc(OCC)cc1	/	13
CC1CCCCN1C(=O)CSc1nnc2sc3ccccc3n12 (stereo not drawn)	/	9
Brc1cc2c(cc1CSc1nnc3ccccn13)OCO2	/	-16
CSc1nnc(SCC(N)=S)s1	/	16
CSc1sc(C(=O)O)c(N)c1S(=O)(=O)C(C)C	3.2	/
Cc1cc(C)c(-n2nnnc2SCC(=O)NCCc2ccccc2)c(C)c1	/	5
N#CCSc1nnc2c(n1)[nH]c1ccccc12	23	/
Cc1cc(Sc2nnc(C(F)(F)F)n2C)c([N+](=O)[O-])cc1[N+](=O)[O-]	0.9	/
